Menin MLL FP FL: inhibitors of human menin-MLL interaction, wild-type MLL peptide; Fluorescence polarization, fluorescein-MLL peptide displacement from menin; AID 1766; FP activity change, % at 61.4 µM; 290,000 tested, under 10 active; inconclusive = falling polarisation curve, or a change in total fluorescence; inactive = total fluorescence flat and polarisation flat or rising; no compound was filed as active; the % refers to the polarisation; negative = inhibition;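 also: % of control where 0% means no effect; inhibitors lower the polarisation; unlabelled MLL peptide was the positive control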
gsp antagonist: gsp mutant antagonism. gsp-mutant cells, cAMP HTRF, 30 min; control for the full effect not named in the record. Potency, µM (series often up to 76.9 µM), for the others: at the highest dose activity change, negative = inhibition, actives largely listed as inhibitors. actives 0.4% (n = 340,000); active = falling curve of any shape with a large fitted effect; inconclusive = falling curve, mostly with a smaller effect; inactive = flat or rising curve; cell line not stated here;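 also: intracellular cAMP measured with PDE inhibitor Ro 20-1724 present during compound exposure; potency is read from the fitted curve at half-maximal effect; % is scaled to controls: 0 for no effect and ±100 for the full control effect; nearly all actives have a fitted effect of over 65% in size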
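Cells in G418 medium, seeded 16-24 h, 37C; buffer exchange to DPBS + 1 mM CaCl2, 0.5 mM MgCl2, 0.05% BSA; cpds in DMSO + […] (300 uM stock), 30 min 37C; HTRF cAMP detection.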
ClpP mod: qHTS Assay for Activators of ClpP; actives 1.9% (n = 340,000); Potency, µM (series often up to 57.5 µM), for inactives: top-dose activity change, negative = active; ATP-dependent Clp protease proteolytic subunit (Bacillus subtilis (strain 168)), P80244; purified B. subtilis ClpP, FRET peptide cleavage, 20 min; active = well fitted falling curve with a large enough effect; inconclusive = small, poorly fitted or top-dose-only effect; inactive = no such curve, though single readings can be large or run the other way; also: potency is read from the fitted curve at half-maximal effect; the source files actives as falling curves though it sought activators and does not explain the sign; nearly all actives have a fitted effect of over 65% in size; many hits overshoot -100%
Target sequence (P80244 whole entry, looked up): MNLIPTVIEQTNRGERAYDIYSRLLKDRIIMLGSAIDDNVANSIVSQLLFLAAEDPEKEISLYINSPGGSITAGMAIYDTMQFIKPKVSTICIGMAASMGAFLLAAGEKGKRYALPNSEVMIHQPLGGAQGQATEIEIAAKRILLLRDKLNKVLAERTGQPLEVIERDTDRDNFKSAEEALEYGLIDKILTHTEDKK
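Purified B. subtilis ClpP, 10 microg/mL final in Tris/HCl pH8 with KCl, BSA, glycerol and Tween-20, cleaved an Abz/nitrotyrosine-quenched decapeptide. Fluorescence (ex 320, em 430) was read at 0 and 20 min at room temperature. Delta was normalized to 5.8 microM ADEP and DMSO/no-enzyme controls.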
gsp ag: gsp mutant agonism. gsp mutant cells, cAMP HTRF, 30 min; control for the full effect not named in the record. Potency, µM (titrated, usually from 76.9 µM), for the others: top-dose activation (cAMP increase), hits mostly activators. actives 0.13% (n = 340,000). AID 624287; active = well fitted activation curve with a large enough effect; inconclusive = small, poorly fitted or top-dose-only effect, or another doubt; inactive = no such curve, though single readings can be large or run the other way; cell line not stated here;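 also: phosphodiesterase inhibitor Ro 20-1724 added with compounds to block cAMP breakdown; potency is read from the fitted curve at half-maximal effect; nearly all actives have a fitted effect of over 60% in size; about a fifth of the inactives were tested at one dose only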
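Cells stably selected in G418 were plated at 2000/well, grown 16-24 hr, then given compounds in DMSO with the PDE inhibitor […] (300 uM solution added) for 30 min at 37C; cAMP was read by HTRF.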
TRPML1 ag: activates the human TRPML1 channel; Q9GZU1; TRPML1-expressing cells, Ca2+ dye fluorescence, FDSS; host cell line not named in the record; reference of the full effect not given here; activation, % (test concentration not listed); actives 0.12% (n = 410,000); AID 624414; in the data active = activation above about 50%; inconclusive = about 30% to 50%; inactive = below about 30%; also: 0% is about no effect; the text of the record puts the active cut at 80%
Target sequence (Q9GZU1 whole entry, looked up): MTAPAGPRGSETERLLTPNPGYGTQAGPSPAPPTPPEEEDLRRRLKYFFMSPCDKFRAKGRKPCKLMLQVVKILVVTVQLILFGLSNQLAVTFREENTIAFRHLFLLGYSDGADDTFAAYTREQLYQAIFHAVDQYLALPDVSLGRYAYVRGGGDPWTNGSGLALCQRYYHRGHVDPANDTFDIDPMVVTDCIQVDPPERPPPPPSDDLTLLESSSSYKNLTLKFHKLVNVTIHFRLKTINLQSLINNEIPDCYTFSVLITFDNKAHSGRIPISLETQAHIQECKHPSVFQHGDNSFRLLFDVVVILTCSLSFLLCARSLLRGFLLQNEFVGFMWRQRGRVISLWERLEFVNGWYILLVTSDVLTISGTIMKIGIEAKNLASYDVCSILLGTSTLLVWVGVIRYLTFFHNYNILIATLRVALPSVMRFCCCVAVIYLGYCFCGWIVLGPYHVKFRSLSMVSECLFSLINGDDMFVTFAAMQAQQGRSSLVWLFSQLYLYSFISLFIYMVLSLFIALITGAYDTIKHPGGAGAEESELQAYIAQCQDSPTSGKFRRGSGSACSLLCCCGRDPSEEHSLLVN
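Cells: TRPML1-DL, 1X Tet inducer, ~16 h at 37 degrees C/5% CO2. Dye: ABD Ca8 no-wash + quencher, 45-90 min RT. Read: 10 s baseline, compound add, 110 s agonist phase; 54-4 EC80 (4uM final), 110 s antagonist phase.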
TRPML1 blocker: inhibitors of human TRPML1 channel | TRPML1-inducible cells, Ca2+ dye fluorescence, FDSS; hits give low values; inhibition of EC80 agonist-evoked calcium signal | activity change, negative = inhibition, % (concentration not given with the values) | actives 0.02% (n = 390,000); in the data active means activity change below about -50%; inconclusive means about -30% to -50%; inactive means above about -30%;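 also: stimulus is agonist 54-4 at its EC80 concentration; % is scaled to controls: 0 for no effect and ±100 for the full control effect; compound concentration not given in the record; the text of the record puts the active cut at -80%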
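TRPML1-DL cells, Tet-induced overnight (~16 h, 37 °C) at 1,500 cells/well, were loaded with Ca8 no-wash dye plus quencher for 45-90 min at room temperature. Compounds were pinned during FDSS kinetic reading; agonist 54-4 at EC80 (4 uM final) then added.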
The depositor's hits bear a star; u = inconclusive; x = no result given; & = joins results of further samples; [ ] = remark or other dose.

SMILES | Menin MLL FP FL | gsp antagonist | ClpP mod | gsp ag | TRPML1 ag | TRPML1 blocker
CCCc1noc2c1C(c1cc(Br)ccc1F)C(C#N)=C(N)N2 (stereo not drawn) | 1.2 | 4% | -1.0% | u | 2.7 | 60
COc1cc(/C=N/n2cnnc2)ccc1OCC(=O)N1CCOCC1 | 2.4 | 9% | -0.2% | -3%[15.4 µM] | -0.5 | 3
Cc1cccc(N2C(=O)C(CC(=O)Nc3cccc(F)c3)N(CCc3ccncc3)C2=O)c1 (stereo not drawn) | 1.7 | -4% | -1.0% | -25% | -0.3&-0.2 | 6&-7
CCN(CC)Cc1c(C(=O)N/N=C/c2ccccn2)nnn1-c1nonc1N | x | 1% | x | 6%[15.4 µM] | -0.1 | 12
CCOC(=O)c1c(S(=O)(=O)N2CCCC(C(=O)Nc3ncccc3C)C2)c(C)n(C)c1C (stereo not drawn) | 2.7 | 18% | 0.2%&-3.4% | u | -0.7&-0.7 | 23&-30
COc1ccc2c(c1)c(=O)c(S(=O)(=O)c1ccc(Cl)cc1)cn2Cc1cc(C)ccc1C | x | x | -9.8% | x | 1.7 | 11
CCOC(=O)c1c(C)nc2sccn12 | 4.2 | 15% | -0.8% | u | 3.3 | 2
Cc1ccc(NS(=O)(=O)c2ccc(C(=O)N3CCN(S(=O)(=O)c4ccccc4)CC3)cc2)cc1 | x | u | 1.3% | -9% | 0.5 | 10
O=C(COC(=O)c1cc(S(=O)(=O)N2CCc3ccccc3C2)ccc1Cl)NCc1ccco1 | 1.3 | u | -4.9% | 2% | -0.5 | 8
Nc1c(N(Cc2ccccc2)C(=O)COc2ccc([N+](=O)[O-])cc2)c(=O)[nH]c(=O)n1Cc1ccccc1 | x | -14% | -0.7% | u | -0.2 | 1
CSCCC(N=C(NS(=O)(=O)c1ccc(Br)cc1)c1ccccc1)C(=O)O (stereo not drawn) | -1.1 | 4% | x | -30% | 0.7 | -18
Cc1ccc(C(=O)NC(=S)Nc2ccc3[nH]c(=O)[nH]c3c2)c(C)c1 | 0.1 | 18% | 2.2% | 3% | -0.5 | 37
COc1cc(NC(=O)C2Cc3ccccc3CN2S(C)(=O)=O)cc(OC)c1 (stereo not drawn) | 3.8 | 6% | -1.2% | -4%[15.4 µM] | -1.4 | 8
Cc1cnc(C(=O)OCc2ccc(Br)cc2F)cn1 | x | -20% | x | 17%[15.4 µM] | -0.6 | -7
COc1ccc(CCNC(=O)c2nc(SCc3ccc(C)cc3)ncc2Cl)cc1OC | x | x | 3.8% | x | 3.9 | -10
CCCCOC(=O)CSCC(=O)N1N=C(c2cccs2)CC1c1ccc(F)cc1 (stereo not drawn) | 3.2 | -20% | 14µM* | -12% | 4.6 | 9
CCOC(=O)N1CCN(c2c(F)cc3[nH]c(=S)[nH]c3c2Br)CC1 | -1.0 | 23% | -1.2% | -25% | -0.4 | 8
O=C(c1c[nH]c(C(=O)C(Cl)(Cl)Cl)c1)c1ccccc1Br | 0.3 | 3% | x | -3%[15.4 µM] | 0.0 | -24
Cc1ccc(NC(=O)CCn2cnc3ccccc3c2=O)c(C)c1 | -0.3 | 3% | 10.0% | -9%[15.4 µM] | 0.9 | -1
CCN1C(N(C)C)=NC[C@@H]1Cc1ccccc1 | x | 9% | -0.9% | x | 0.1 | 3
COc1cccc(C=NNc2nc3ccccc3s2)c1OC | x | 5% | x | 24% | -0.6 | -1
CCOC(=O)c1c(C)[nH]c(CCC(=O)Nc2ccccc2OCC)c1C | x | x | 0.8% | x | 4.8 | -8
NS(=O)(=O)c1ccc(CCNC(=O)c2cccc(S(=O)(=O)N3CCc4ccccc43)c2)cc1 | x | x | 2.9% | -65%[inhibitor] | -0.2 | 4
CC(=O)Nc1ccc(S(=O)(=O)Nc2ccc(S(=O)(=O)N3CCCCCC3)cc2)cc1 | 2.1 | -12% | -4.4% | -14% | 0.4 | -2
O=C(Cc1ccccc1)NNC(=O)C1CC=CCC1 (stereo not drawn) | -0.8 | 13% | x | 0% | 0.4 | -10
O=C(CCC(=O)Nc1ccccc1Cl)NNC(=S)Nc1ccccc1C(F)(F)F | x | 18% | 0.7% | -29% | -0.2 | 1
CCO[C@@H]1OC(C(=O)N2CCOCC2)=C[C@H](C(C)(C)C)[C@H]1CCCO | x | 4% | -3.1% | x | -0.2 | -12
NC(=S)NNC(=O)[C@@H]1CCCC[C@@H]1C(=O)O | -2.5 | 9% | -2.3% | 6% | 0.0 | 41
CCC(C)(C)n1nnnc1C(c1cccc(C#N)c1)N1CCN(c2cccc(C)c2C)CC1 (stereo not drawn) | 1.0 | -3% | -4.6% | -8% | 0.7 | 23
CC(C)=CCC/C(C)=C/C=N/NC(=O)c1ccccc1[N+](=O)[O-] | 3.2 | -18% | 2.2% | -50%[inhibitor] | 1.2 | -13
COC(=O)C1(C)CCCC2(C)c3cc(OC)ccc3C(=O)C(Br)C12 (stereo not drawn) | x | x | -0.1% | -71%[inhibitor] | -1.0 | 3
COc1cccc(CC2(CO)CCCN(Cc3sc(N4CCCC4)nc3Cl)C2)c1 (stereo not drawn) | u | -11% | x | -11%[15.4 µM] | 2.4 | -3
O=c1c([N+](=O)[O-])c(NC2CCCCC2)c2ccccc2n1-c1ccccc1 | -1.2 | -17% | 1.5% | -24% | 5.6 | 23
COc1ccccc1N1CCN(C(=O)c2cc3ccccc3[nH]2)CC1 | -4.5 | -19% | -4.6% | 1% | -0.2 | 10
CNS(=O)(=O)c1ccc(Cl)nc1 | 0.9 | 11% | -24% | 26% | -0.1 | 18
CCC1CCCCN1C(=S)NC(=O)c1cccs1 (stereo not drawn) | 2.2 | 7% | x | u | -0.6 | 11
CC(=O)Nc1ccc(OCc2ccc3c(c2)OCO3)cc1 | 1.5 | 5% | x | -10% | 0.1 | 4
CC(C)OCCCNC(=O)c1c(N)n(/N=C/c2ccccn2)c2nc3ccccc3nc12 | -2.4 | -21% | -3.4% | -8% | -0.7 | 4
Cc1ccc(NC(=O)Nc2ccc(F)c(Cl)c2)cc1 | -3.8 | 3% | x | 10% | -0.5 | 18
CC1Cc2nc(SCC(=O)Nc3ccc4c(c3)OCCO4)n(C)c(=O)c2S1 (stereo not drawn) | 9.0 | -11% | -0.6% | -11% | 0.1 | 16
O=C(c1cc(-c2cccnc2)nc2ccccc12)N1CCN(S(=O)(=O)c2ccc(Cl)s2)CC1 | x | -15% | 0.6% | -2% | 2.9 | 45
CCNC(=O)c1ccc2nc(Cc3ccccc3)oc2c1 | x | x | 0.0% | x | 3.1 | 17
Cc1ccccc1-c1nnc(SCC(=O)NC2CCCCC2)o1 | -3.7 | -12% | 1.5% | 28% | 1.0 | -9
Cc1cccc(C(=O)NNC(=O)CSc2nnc(C(C)C)n2C)c1 | -2.2 | 4% | x | 23%[15.4 µM] | 0.7 | -21
CCS(=O)(=O)c1ccc2c(c1)N(S(=O)(=O)c1cccs1)CC(C(=O)O)O2 (stereo not drawn) | -6.1 | 6% | 1.0% | 51% | 0.8 | -26
O=C(COc1cccnc1[N+](=O)[O-])Nc1cc(S(=O)(=O)N2CCCCC2)ccc1Cl | 1.8 | -16% | 0.3% | -26% | 0.3 | 14
Cn1c(N)c(C(=O)CSc2nnc(-c3ccccc3F)n2C2CC2)c(=O)n(C)c1=O | -6.5 | 13% | x | -4%[15.4 µM] | -0.1 | -7
Cc1cccc(NC(=O)CCS(=O)(=O)c2cc3c(cc2Cl)NC(=O)CO3)c1 | x | 14% | -0.9% | -1% | 0.2 | 16
COc1ccc(-n2nc(C(=O)N3CCN(c4ccc(F)cc4)CC3)c3c4ccccc4n(C)c3c2=O)cc1 | x | x | -21% | x | 3.4 | -5
COc1ccc(C2N(c3ccccc3)CCN2c2ccccc2)cc1O | 0.4 | u | x | -1%[15.4 µM] | -0.7 | -8
C=CCNC(=O)c1onc(CSc2ccc(C(C)C)cc2)c1C(=O)O | 1.1 | -7% | 3.1% | x | -0.1 | -7
COC(=O)c1cc(=O)n(Cc2ccc3c(c2)OCO3)c(=Nc2ccc(F)cc2)s1 | 0.4 | -6% | 1.3% | -7% | 0.7 | -14
CCN(CC)S(=O)(=O)c1ccc(N2CCCC2)c(NS(=O)(=O)c2ccc([N+](=O)[O-])cc2)c1 | 4.6 | -7% | 1.4% | -8% | 0.9 | 28
CC(C)(O[C@@H]1O[C@H](CO)[C@@H](O)[C@H](O)[C@H]1O)[C@@H]1CC=C(C(=O)O)CC1 | x | -4% | -0.9% | x | -0.5 | 5
Nn1c(COc2ccccc2)nc2ccccc2c1=O | -3.2 | 1% | -1.1% | 43% | 0.1 | 38
CC1(C)SC2c3ccccc3C(=O)N2[C@@H]1C(=O)NCCCN1CCOCC1 (stereo partly drawn) | 5.6 | -2% | 1.5% | 1% | -0.4 | -5
Cc1nnc(C)n1/N=C/c1ccc(-c2ccccc2Cl)o1 | -3.8 | u | -3.0% | 16%[15.4 µM] | -1.0 | -13
CCOC(=O)c1c(NC(=O)CS(=O)(=O)c2ccc(C)cc2)sc2c1CCCCC2 | x | x | -14% | x | 1.7 | 21
CN(C)S(=O)(=O)c1ccc(C(=O)NCC2(N3CCOCC3)CCCCC2)cc1 | x | 6% | -1.4% | -1% | 1.3 | 57
NC(=O)C1CCN(CCCNC2CC(=O)N(Cc3ccc(N4CCCC4=O)cc3)C2=O)CC1 (stereo not drawn) | x | 7% | -3.1% | -19% | 0.4 | 16

Continued, overlapping the part above by 2 compounds.
SMILES | Menin MLL FP FL | gsp antagonist | ClpP mod | gsp ag | TRPML1 ag | TRPML1 blocker
CN(C)S(=O)(=O)c1ccc(C(=O)NCC2(N3CCOCC3)CCCCC2)cc1 | x | 6% | -1.4% | -1% | 1.3 | 57
NC(=O)C1CCN(CCCNC2CC(=O)N(Cc3ccc(N4CCCC4=O)cc3)C2=O)CC1 (stereo not drawn) | x | 7% | -3.1% | -19% | 0.4 | 16
O=C(COC(=O)c1cccnc1Cl)Nc1cccc(S(=O)(=O)N2CCCCC2)c1 | 0.3 | u | x | 13% | -0.7 | -1
CCOCCCNC(=O)CN1C(=O)NC(Cc2c[nH]c3ccccc23)C1=O (stereo not drawn) | -6.8 | 12% | 0.2% | 23% | -0.1 | -5
CC(C)CCN(CC(=O)NCc1ccc(F)cc1)S(=O)(=O)c1ccccc1F | 0.3 | -19% | x | -1% | 3.0 | 11
O=C(CCC1CCCCC1)NC1CCCCC1 | x | 2% | -3.7% | -27% | 0.3 | 12
COc1ccc(CNC(=O)CCN2C(=O)c3ccccc3S2(=O)=O)cc1 | x | 11% | 1.0% | -1%[15.4 µM] | 0.1 | 13
CCN1C(=O)/C(=C2/C=Cc3cc(C)ccc3N2CC)N(C)C1=S | 3.1 | -5% | 1.2% | -11% | 5.7 | 6

Assay outcomes (PubChem BioAssay)
